# KCNQ2 enhance: enhances the rat KCNQ2 potassium channel; CHO-K1 KCNQ2, FluxOR thallium flux fluorescence; active compounds read high; B-score at 10 µM; actives 0.54% (n = 310,000); AID 2239; O88943;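 active = fluorescence ratio B-score at least 3 SD of library B-scores, with initial fluorescence B-score within 3 SD, cut at about 5.3 in these data; same plate scores as AID 2156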;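 also: B-score of peak minus minimum over baseline fluorescence ratio after K+ and Tl+ stimulus; positive B-score means potentiation of KCNQ2 with more thallium influx and brighter signal; only the inactives scoring about 0 or higher are listed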
# Target sequence (O88943 whole entry, looked up): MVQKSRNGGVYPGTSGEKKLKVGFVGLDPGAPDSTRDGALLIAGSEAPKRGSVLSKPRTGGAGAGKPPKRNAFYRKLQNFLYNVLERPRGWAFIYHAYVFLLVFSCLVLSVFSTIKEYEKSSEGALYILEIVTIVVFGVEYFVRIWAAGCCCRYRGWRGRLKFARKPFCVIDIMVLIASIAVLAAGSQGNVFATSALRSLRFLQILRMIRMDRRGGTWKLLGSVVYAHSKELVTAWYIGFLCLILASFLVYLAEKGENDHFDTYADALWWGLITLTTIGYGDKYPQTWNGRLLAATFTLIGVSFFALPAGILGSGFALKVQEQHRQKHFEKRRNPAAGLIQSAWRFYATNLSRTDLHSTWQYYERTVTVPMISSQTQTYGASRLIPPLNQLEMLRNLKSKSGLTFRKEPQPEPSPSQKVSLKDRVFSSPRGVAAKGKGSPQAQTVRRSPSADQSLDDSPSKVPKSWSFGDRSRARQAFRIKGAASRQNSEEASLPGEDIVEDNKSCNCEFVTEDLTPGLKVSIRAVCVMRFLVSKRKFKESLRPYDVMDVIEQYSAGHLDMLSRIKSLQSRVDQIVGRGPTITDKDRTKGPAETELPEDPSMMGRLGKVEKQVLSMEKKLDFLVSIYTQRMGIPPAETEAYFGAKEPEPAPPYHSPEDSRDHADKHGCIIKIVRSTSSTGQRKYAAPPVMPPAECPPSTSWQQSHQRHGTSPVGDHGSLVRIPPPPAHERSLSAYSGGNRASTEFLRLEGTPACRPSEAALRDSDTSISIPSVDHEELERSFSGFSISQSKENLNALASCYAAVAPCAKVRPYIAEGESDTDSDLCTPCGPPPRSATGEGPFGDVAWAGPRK
# KCNQ2 enhance baseline: further read-out of KCNQ2 enhance, marked with its call; B-score; compound at 10 µM; measured here: initial fluorescence intensity artifact check;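 brightness before thallium and not channel activity; 0 = typical well and far values either way flag optical interference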
# Starred values were filed as active, the others as inactive.
SMILES,KCNQ2 enhance,KCNQ2 enhance baseline
COc1ccc2c(-c3ccccc3)cc(SCC(=O)NC3CCS(=O)(=O)C3)nc2c1 (stereo not drawn),1.1,1.4
CCOC(=O)c1ccc(NC(=O)CSc2nnc(CNC(=O)c3c(F)cccc3Cl)o2)cc1,0.45,1.3
Cc1ccc(-n2cc3ccc([N+](=O)[O-])cc3n2)cc1,0.05,0.72
N#CCCn1c(SCC(=O)NCC2CCCO2)nc2ccccc21 (stereo not drawn),0.85,-0.22
Cc1cc(C)c(C)c(/C=C(/C#N)C(N)=S)c1C,0.46,0.21
O=C(CNS(=O)(=O)c1ccccc1)Nc1ccccc1Br,0.35,1.1
Cc1[nH]n(-c2cccc3ccccc23)c(=O)c1C=Nc1ccc2[nH]c(=O)[nH]c2c1,0.6,-0.26
Cc1[nH][nH]c(=O)c1N=Nc1ccc(S(N)(=O)=O)cc1,0.03,-0.48
Cc1ccc2nc(C)c(Cl)c(=O)n2c1,1,0.87
CC(C)n1ncc(N2CCOCC2)c(Cl)c1=O,0.01,0.05
Cc1ccnc(NC(=O)CNC(=O)c2cccs2)c1,1.5,-0.77
Cc1cc2c(cc(C(=O)OCC(=O)NCc3ccco3)n2C)s1,0.34,1.6
Cc1nc2nc(COc3ccccc3)[nH]n2c(=O)c1C,0.73,-1.7
Cc1ccc(F)cc1NC(=O)CSc1nc(Nc2ccccc2)nc(N2CCOCC2)n1,0.41,0.45
Cc1ccc(Oc2ccc(Oc3ccc(C)cc3)nn2)cc1,1.1,-0.47
CCOC(=O)c1c(C)[nH]c(C(=O)COC(=O)c2oc3ccccc3c2C)c1C,1.8,0.77
CC(C)NCCCCOc1cccc(Br)c1,0.09,-0.68
CCCCOC(=O)Nc1nc2ccc(OC)cc2s1,0.45,0.64
CCCc1nn(C)c(C(=O)Nc2ccc(C(C)(C)C)cc2)c1Cl,1.4,0
COc1ccc(C(=O)Cn2cnc3ccccc3c2=O)cc1,0.1,0
CN1CCN(C(=S)C(=O)Nc2ccc(Br)cc2)CC1,1.3,-0.78
CC(C)CN(C(=O)c1cccc([N+](=O)[O-])c1)c1c(N)n(CC(C)C)c(=O)[nH]c1=O,0.02,-0.32
CC(C)(C(N)=O)N1CCN(c2ncc(C(F)(F)F)cc2Cl)CC1,2.2,-2.7
CC(=O)N1CCN(C(=O)c2oc3ccccc3c2C)CC1,0.27,-1
CCOC(=O)CN1C(=O)CSc2ccc(S(=O)(=O)N3CCCC3)cc21,0.32,1.9
Cc1cc(C)c2c(n1)nn1c(N3CCN(c4ccccc4)CC3)cc(C)nc21,0.08,-0.3
O=C(CN1C(=O)NC2(CCCC2)C1=O)Nc1cc(Cl)ccc1N1CCOCC1,0.11,-0.31
c1ccc(-c2nc(Sc3ncnc4c3cnn4-c3ccccc3)n[nH]2)cc1,0.07,-0.57
CS(=O)(=O)c1ccc(Cl)c(NC(=O)c2cc(=O)[nH]c3ccc(S(=O)(=O)N4CCOCC4)cc23)c1,0.21,0.04
COC(=O)C1CCN(C(=O)NC2CC(=O)N(c3ccc4c(c3)OCCO4)C2)CC1 (stereo not drawn),0.57,-1.7
COc1ccc(Cc2noc(CN3CCN(Cc4cccc(Cl)c4)CC3)n2)cc1OC,7.2*,0.73*
CCOc1ccc(NC(=O)CCSc2ccc(C)cc2)cc1,0.57,-0.01
COC(=O)C1=C(CN2CCN(C)CC2)NC(=O)NC1c1cc(C)ccc1C (stereo not drawn),0.08,-0.14
CN(CC(=O)Nc1ccccc1Cl)C(=O)CSc1nc2ccccc2s1,0.15,0.75
COc1ccc(C2C(C(=O)c3ccco3)=C(O)C(=O)N2CCN2CCOCC2)cc1 (stereo not drawn),0.81,0
O=C1OC2(CCCC2)OC(=O)C1=Cc1c[nH]c2ccccc12,1.1,0.27
COc1cccc(NC(=O)c2cc(S(=O)(=O)N3CCc4ccccc43)cn2C)c1,1.9,-0.59
Cc1ccccc1SCC(=O)OCC(=O)Nc1ccc(N(C)C)cc1,0.11,0.87
NS(=O)(=O)c1ccc(NC(=O)CN2CCCCC2)cc1,1.4,-0.07
Cc1nc(NC(=O)/C=C/c2ccc(Cl)cc2Cl)sc1C(=O)N(C)C,2.6,-1
Cc1ccc(-n2nnnc2Sc2nc([N+](=O)[O-])nn2C)cc1C,0.04,1.7
COC(=O)[C@H](C)NC(=O)Nc1cc(OC)ccc1OC,0.01,-0.61
NC(=S)N=Nc1c(O)n(Cc2ccccc2)c2ccccc12,0.56,-0.77
COc1ccc(N2CCN(C(=O)CSc3ncnc4c3cnn4-c3ccccc3C)CC2)cc1,2.8,0.14
Cc1ccc(-c2nnn(CC(=O)N(c3ccccc3F)C(C(=O)NC3CCCC3)c3ccncc3)n2)o1 (stereo not drawn),2.5,0.03
COc1ccc(Cl)cc1NC(=S)N(CCCN1CCOCC1)Cc1cn(C)c2ccccc12,1.8,-1.6
O=C(NNS(=O)(=O)c1ccccc1[N+](=O)[O-])c1cccnc1,0.61,-1.1
CC12CCC(C/C1=N\N=C1\NC(=O)/C(=C\c3cccc(Br)c3)S1)C2(C)C (stereo not drawn),3.8,0.97
CCCCNC(=O)N1CCN(C(=O)c2ccco2)CC1,0.09,-0.29
Cc1[nH]n(-c2ccccc2)c(=O)c1N=Nc1ccc(C#N)cc1,0.05,-0.65
COc1ccccc1NC(=O)C(CCS(C)(=O)=O)N1C(=O)c2ccccc2C1=O (stereo not drawn),0.58,1.1
COc1ccccc1NS(=O)(=O)c1cc(N2Cc3ccccc3C2=N)ccc1N1CCOCC1,0.93,-0.53
CC(C)(C)c1[nH]nc2c1C(c1cccnc1)C(C#N)=C(N)O2 (stereo not drawn),0.49,0.03
CCOc1ccc(C(=O)NC(=S)Nc2cccc(S(=O)(=O)NC3=NCCC3)c2)cc1,0.17,0.84
CSc1nnc(C)c(/C=C/Nc2ccc(F)cc2F)n1,0.32,-0.02
CCOc1ccc(CCNC(=O)C2=C(C)C(=O)OC23CCCCC3)cc1OCC,0.35,0.02
CCOc1ccc(NC(=O)CCC(=O)c2ccc(F)cc2)cc1,1.6,-0.22
COc1cc(C2C3=C(CC(C)(C)CC3=O)NC3=C2C(=O)c2ccccc23)ccc1O (stereo not drawn),1.4,1.4
Cc1ccc(NC(=O)C2C3CCCC2C3c2ccccc2)c(C)c1 (stereo not drawn),2.6,0.77
Cc1nn(-c2ccc(F)cc2)c2sc(C(=O)O)cc12,0.18,-0.04
# (continued)
SMILES,KCNQ2 enhance,KCNQ2 enhance baseline
CCc1ccc(N(CC(=O)NC(C)(C)C)C(=O)CCC(=O)Nc2ccccn2)cc1,0.07,-0.07
O=C(CSc1nnc2c(n1)[nH]c1ccccc12)Nc1nncs1,0.42,-0.21
Cc1nc(NC(=O)C2CC2)sc1C(=O)Nc1ccccc1,0.81,-0.93
Cc1ccc(C)c(SCC(=O)OCC(=O)NCCNC(=O)COC(=O)CSc2cc(C)ccc2C)c1,0.72,-0.08
Cc1cc2oc(=O)cc(CNc3ccccc3F)c2cc1O,0.44,0.58
C=CCOC(=O)C1=C(C)NC(=O)NC1c1cc(Cl)cc(Cl)c1OC (stereo not drawn),0.85,1.2
CN1C(=O)c2ccc(C(=O)Nc3ccc4c(c3)OCO4)cc2C1=O,0.72,-0.04
O=C(CSc1nnc(CNc2ccc(Cl)cc2)o1)Nc1nc2c(s1)CCCC2,0.6,-1.8
C/C=C(/C)C(=O)O[C@@H]1[C@H](OC(C)=O)c2c(ccc3ccc(=O)oc23)OC1(C)C,0.9,-0.13
CN(CCNC(=O)CN1C(=O)CSc2ccc(S(=O)(=O)N3CCCC3)cc21)Cc1ccccc1,0.45,2
CN(C)CC(O)COc1ccc(-c2ccc(C#N)cc2)cc1 (stereo not drawn),1.2,1.3
CCOc1cc(C2c3c(oc4cc(C)c(Cl)cc4c3=O)C(=O)N2Cc2ccco2)ccc1O (stereo not drawn),0.15,-0.16
CC1=C(C(=O)OCc2ccccc2)C(c2ccccc2Br)NC(=O)N1 (stereo not drawn),0.02,-2.1
Cc1cc(Cl)ccc1OCCCC(=O)N1CCCCC1,1.9,0.75
COC(=O)CC1C(=O)NCCN1C(=S)NC(=O)C(c1ccccc1)c1ccccc1 (stereo not drawn),0.58,3.3
CCOc1ccc(C(CC(=O)O)NC(=O)c2ccco2)cc1OC (stereo not drawn),0.65,-0.04
COC(=O)C1=C(C(=O)OC)N2C=CC=CC2(C)C(C(=O)OC)=C1C(=O)OC (stereo not drawn),0.21,0.7
COc1ccc(N2CCN(C(=O)Nc3ccccc3C)CC2)cc1,0.93,-0.82
CC(C)(C)c1ccc(CN2C3=NCCCN3c3ccccc32)cc1,0.43,-1.7
CCOc1ccc(C(=O)OCC(=O)NCCNC(=O)COC(=O)c2ccc(OCC)cc2)cc1,0.46,-1.5
CCOC(=O)c1cc2c(=O)n3ccccc3nc2n(CC(C)C)c1=NC(=O)c1ccco1,2.4,0.49
O=C(Nc1ccc2c(c1)OCO2)c1cc(-c2cccnc2)nc2ccccc12,1,-0.61
Cc1ccc(S(=O)(=O)N(C)C)cc1NC(=O)COC(=O)C1CCN(S(=O)(=O)c2cccs2)CC1,0.34,0.09
Cc1cccc(Nc2nnc(SCC(=O)c3ccc(O)cc3O)s2)c1,0.1,-0.16
Cc1ccc(NC(=O)CN(C)C(=O)c2ccc(S(=O)(=O)N(C)c3ccccc3)cc2)cc1,0.07,-0.91
CCCCNS(=O)(=O)c1ccc(NC(=O)C2CCCO2)cc1 (stereo not drawn),1,0.62
Cc1ccc(C(=O)OCN2C(=O)c3ccccc3C2=O)o1,2.8,-1.2
Cc1ccc(NNS(=O)(=O)c2ccc(C)cc2)cc1,0.74,-1.2
O=c1[nH]c(SCCN2CCOCC2)nc(O)c1-c1ccccc1,1.5,1.9
COc1ccccc1N(CC(=O)Nc1c(C)cccc1C)S(C)(=O)=O,0.29,0.7
CCOC(=O)C1(Cc2ccccc2)CCN(Cc2cccn2-c2nccs2)CC1,2.2,-0.15
Cc1cc(C)c(C#N)c(OCC(=O)Nc2ccccc2)n1,0.62,-1.8
Cc1sc2ncnc(NC3CCN(Cc4ccccc4)CC3)c2c1C,1.6,-0.02
COc1ccc(/C=C/C(=O)Nc2ccc(OC)cc2[N+](=O)[O-])cc1,0.71,-0.72
CNC(=S)N/N=C/c1ccc2c(c1)OCCO2,0.18,0.08
O=C(O)c1cc(Br)ccc1NN=C1CCCCC1,1.8,-0.25
CCN(CC(O)CON=C1c2ccccc2-c2ccccc21)S(=O)(=O)c1ccc(C)cc1 (stereo not drawn),0.14,1
CCN(CC(=O)NCc1cccs1)C(=O)/C=C/c1ccc(OC)c(OC)c1,1.1,1.4
COc1cccc(-c2[nH]nc3c2C(c2ccc(C)o2)C(C#N)=C(N)O3)c1 (stereo not drawn),0.17,2.2
COc1ccc([N+](=O)[O-])cc1NC(=O)CCc1ccccc1,2.1,0.25

# 16 compounds out of the list, arranged by count of non-hydrogen atoms, falling:
SMILES,KCNQ2 enhance,KCNQ2 enhance baseline
CN(CCNC(=O)CN1C(=O)CSc2ccc(S(=O)(=O)N3CCCC3)cc21)Cc1ccccc1,0.45,2
CCOC(=O)c1ccc(NC(=O)CSc2nnc(CNC(=O)c3c(F)cccc3Cl)o2)cc1,0.45,1.3
CCN(CC(O)CON=C1c2ccccc2-c2ccccc21)S(=O)(=O)c1ccc(C)cc1 (stereo not drawn),0.14,1
CCc1ccc(N(CC(=O)NC(C)(C)C)C(=O)CCC(=O)Nc2ccccn2)cc1,0.07,-0.07
COc1cccc(NC(=O)c2cc(S(=O)(=O)N3CCc4ccccc43)cn2C)c1,1.9,-0.59
C/C=C(/C)C(=O)O[C@@H]1[C@H](OC(C)=O)c2c(ccc3ccc(=O)oc23)OC1(C)C,0.9,-0.13
CCN(CC(=O)NCc1cccs1)C(=O)/C=C/c1ccc(OC)c(OC)c1,1.1,1.4
Cc1cccc(Nc2nnc(SCC(=O)c3ccc(O)cc3O)s2)c1,0.1,-0.16
C=CCOC(=O)C1=C(C)NC(=O)NC1c1cc(Cl)cc(Cl)c1OC (stereo not drawn),0.85,1.2
CCCc1nn(C)c(C(=O)Nc2ccc(C(C)(C)C)cc2)c1Cl,1.4,0
CN(C)CC(O)COc1ccc(-c2ccc(C#N)cc2)cc1 (stereo not drawn),1.2,1.3
Cc1ccc(C(=O)OCN2C(=O)c3ccccc3C2=O)o1,2.8,-1.2
COC(=O)[C@H](C)NC(=O)Nc1cc(OC)ccc1OC,0.01,-0.61
Cc1ccc(NNS(=O)(=O)c2ccc(C)cc2)cc1,0.74,-1.2
O=C(O)c1cc(Br)ccc1NN=C1CCCCC1,1.8,-0.25
CC(C)n1ncc(N2CCOCC2)c(Cl)c1=O,0.01,0.05

# Remaining list, next part.
SMILES,KCNQ2 enhance,KCNQ2 enhance baseline
O=C(O)c1cc(N/N=C2/CC(c3ccccc3)Oc3ccccc32)ccc1Cl (stereo not drawn),0.48,-1.7
CCn1ncc(Br)c1C(=O)Nc1ccc2c(c1)OCCO2,0.33,-0.6
COc1ccccc1OCC(=O)NCC1CCCN(Cc2cnn(C(C)C)c2)C1 (stereo not drawn),0.39,0
CCC(NC(=O)Cc1c(C)c2c(cc(C)c3c(C)c(C)oc32)oc1=O)C(=O)O (stereo not drawn),0.07,-0.35
COc1ccc(/C=N/Nc2nonc2N)c(OC)c1,0.44,-0.99
CCc1nc(N2CCCC2C(=O)O)c2oc3ccccc3c2n1 (stereo not drawn),0.65,0.17
C/C(=N\N=C(/N)SC1CC(=O)N(c2cccc(Cl)c2)C1=O)c1cccs1 (stereo not drawn),0.04,0.54
CC1(C)CC(=O)c2c(nc(SCC(=O)Nc3nsc(-c4ccccc4)n3)c(C#N)c2-c2ccccc2)C1,2.9,-0.21
CCc1cccc(NC(=S)N(CCN(C)C)C(C)c2ccncc2)c1 (stereo not drawn),1.1,0.85
COc1ccccc1N1CCN(C2CC(=O)N(C)C2=O)CC1 (stereo not drawn),1.6,-0.16
O=C(Oc1ccccc1)N(c1ccccc1)c1ccccc1,1.2,-0.35
O=S1(=O)CCOCCCN1Cc1cccc(C(F)(F)F)c1,0.09,0.09

# This is a subset. The share of hits here may be higher or lower than overall.
